High-throughput results as filed in PubChem BioAssay.
Polio RdRp inh: poliovirus RNA polymerase inhibition | poliovirus polymerase elongation, fluorescence polarization; active compounds read low | % elongation, % (compound at 16.7 µg/mL) | hit rate 0.66% among 150,000 | AID 588519; in the data active = % elongation below about 90%; also: some results filed as inactive read as strong as hits
Target sequence (P03300 1749-2209 limits assumed): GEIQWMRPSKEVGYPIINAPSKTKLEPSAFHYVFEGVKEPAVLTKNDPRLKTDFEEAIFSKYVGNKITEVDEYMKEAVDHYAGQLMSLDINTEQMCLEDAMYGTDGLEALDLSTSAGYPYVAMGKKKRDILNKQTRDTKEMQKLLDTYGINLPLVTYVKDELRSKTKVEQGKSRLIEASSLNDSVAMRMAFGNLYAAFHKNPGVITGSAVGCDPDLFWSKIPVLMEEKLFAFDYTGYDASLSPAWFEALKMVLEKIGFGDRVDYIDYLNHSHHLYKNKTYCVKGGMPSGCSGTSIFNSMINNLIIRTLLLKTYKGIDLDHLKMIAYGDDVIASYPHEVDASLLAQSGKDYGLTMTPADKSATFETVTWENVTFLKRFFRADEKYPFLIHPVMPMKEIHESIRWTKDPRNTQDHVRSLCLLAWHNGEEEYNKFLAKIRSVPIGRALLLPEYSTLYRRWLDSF
Polio RdRp inh intensity: further read-out of Polio RdRp inh, marked with its call; % elongation; measured here: total intensity read-out; formula for this scale not given here;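 total fluorescence in place of polarization; lower means less elongation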
* hit, by the source's call.

SMILES	Polio RdRp inh	Polio RdRp inh intensity
CCOc1ccc(CCNC(=O)Cn2c(C)c3cnn(-c4ccccc4)c(=O)c3c2C)cc1	108.0	112.0
CCOc1ccc(NC(=O)CN2CCN(c3ccc(Cl)cc3)CC2)cc1	105.0	106.0
CCN(CC)CCNC(=O)c1ccc2c(c1)N(Cc1ccccc1)C(=O)c1ccccc1S2=O (centres undefined)	101.0	101.0
CC(C)N(C(=O)c1cc2c(Cl)nc3ccccc3c2s1)C1CCCCC1	102.0	105.0
CCOC(=O)C1CCC(CN(Cc2cccc(Br)c2)S(=O)(=O)c2ccc(Cl)cc2)CC1 (centres undefined)	110.0	109.0
O=C(Cn1cnc(S(=O)(=O)N2CCCC2)c1)Nc1cccc(F)c1	106.0	107.0
CCN(CC)CCSc1nc2ccccc2c(=O)n1-c1ccc(Cl)cc1	104.0	105.0
Cc1nn(C(C)C(=O)NC2CCC(C)CC2)c(=O)c2c1sc1ccccc12 (centres undefined)	104.0	104.0
Cc1ccc(N(CC(=O)N2CCN(c3cc(Cl)ccc3C)CC2)S(=O)(=O)c2c(C)noc2C)cc1	107.0	108.0
COC(=O)CSc1nc2sc3c(c2c(=O)n1-c1ccc(C)cc1)CC(C(C)C)OC3 (centres undefined)	105.0	107.0
COc1ccc(Cl)cc1NC(=O)c1c(NCc2cccnc2)sc2c1CCC(C)C2 (centres undefined)	101.0	105.0
CC(=O)Nc1cccc(NC(=O)C2(c3cccs3)CCOCC2)c1	105.0	111.0
COc1ccc(-c2noc(CCC(=O)Nc3cccc(C)c3C)n2)cc1OC	101.0	105.0
Cc1ccc(NC(=O)CCSc2nc(-c3ccco3)cc(C(F)(F)F)n2)cc1F	103.0	104.0
O=C(Nc1cc2c(cc1C(=O)c1cccc(Br)c1)OCCO2)c1ccccc1F	103.0	104.0
Cc1ccc(NC(=O)[C@H](Cc2ccccc2)N2Cc3ccccc3C2=O)cc1	107.0	112.0
COc1ccc(-c2cn3nc(N4CCCC(C(=O)Nc5ccc(Cl)cc5C)C4)sc3n2)cc1 (centres undefined)	111.0	116.0
Cc1ccc(C)c(-n2nnc(-c3nc(-c4ccccc4C)no3)c2C)c1	111.0	116.0
CCc1ccc(NC(=O)CSc2nc3n[nH]c(C)c3c(=N)n2-c2ccc(C)cc2)cc1	86.0*	48.0*
Cc1ccccc1-c1nc(CS(=O)(=O)CC(=O)NC(C)c2ccccc2)c(C)o1 (centres undefined)	101.0	95.0
CC(C)Oc1ccc(CNC(=O)CCCn2c(=O)c3cccn3c3ccccc32)cc1	99.0	103.0
Cc1cc(Cl)ccc1NC(=O)Cn1nnc2sc(-c3ccccc3)cc2c1=O	109.0	96.0
COc1ccccc1NC(=O)CSC1=Nc2ccccc2C2=NC(Cc3ccccc3)C(=O)N12 (centres undefined)	107.0	101.0
CCCCCOc1ccc(/C=C/C(=O)Nc2sc3c(c2C(=O)OCC)CCC3)cc1OC	107.0	109.0
CC(C)(C)C(=O)CSc1nc2ccsc2c(=O)n1Cc1ccccc1Cl	94.0	101.0
SMILES	Polio RdRp inh	Polio RdRp inh intensity
Cc1ccccc1OCc1cc(=O)n2c(-c3ccccc3)csc2n1	108.0	113.0
COc1ccc(CCNC(=O)CN2C(=O)COc3ccc(C)cc32)cc1OC	102.0	105.0
Cc1nc2ccn(Cc3cccnc3)c(=O)c2cc1C(=O)NCc1ccccc1	102.0	111.0
CC(C)Cc1nn2c(=O)cc(COC(=O)c3ccccc3NC(=O)c3ccccc3)nc2s1	101.0	94.0
Cc1ccc(NC(=O)C(Cc2ccccc2)NS(=O)(=O)c2ccc3c(c2)c(=O)n(C)c(=O)n3C)cc1 (centres undefined)	103.0	103.0
Cc1ccc(CNC(=O)c2ccc3c(c2)NC(=O)C(CS(=O)(=O)Cc2cccc(F)c2)N3)cc1 (centres undefined)	110.0	108.0
N#Cc1ccccc1NC(=O)CSc1nnc(N)s1	100.0	108.0
COc1ccc(-n2ccnc(NCc3cccs3)c2=O)cc1OC	109.0	117.0
Cc1ccc(NC(=O)c2cc3ccccn3n2)cc1F	110.0	108.0
Cc1ccsc1CN(C(=O)c1ccc(OCC(C)C)cc1)C1CCS(=O)(=O)C1 (centres undefined)	117.0	115.0
CC(=O)Nc1cc(C(=O)NCc2ccc(F)cc2)ccc1Sc1ccc(C)cc1	112.0	112.0
c1ccc(-c2cn(-c3ccccc3)c3ncnc(N4CCN(c5ccccc5)CC4)c23)cc1	115.0	115.0
Cc1cccc(C)c1-n1ncc(C(=O)NC2CCCC2)c1C1CCN(C(=O)OC(C)(C)C)CC1	106.0	107.0
CCn1c(C(=O)Nc2c(C)cccc2C)cc2sc(Cl)cc21	100.0	109.0
CCOC(=O)c1c(SCC(=O)Nc2nc3ccccc3s2)nc(=O)[nH]c1C	100.0	98.0
COc1ccc(NC(=O)CCNS(=O)(=O)c2cccc3nonc23)c(OC)c1	100.0	104.0
OCc1cnc(SCc2cccc(F)c2)n1Cc1ccc(F)cc1	106.0	86.0
Cc1ccc(NC(=O)C(CC(C)C)N2Cc3ccccc3C2=O)cc1F (centres undefined)	107.0	112.0
COc1ccc(CCNC(=O)c2ccc3c(c2)nc2n3CCC(C)C2)cc1OC (centres undefined)	100.0	106.0
Cc1ccc(CNC(=O)CN2N=C(c3ccccc3)CCC2=O)cc1	114.0	111.0
CCCC(=O)NCC(c1ccc2c(c1)OCO2)N1CCN(c2ccc(F)cc2)CC1 (centres undefined)	100.0	103.0
Cc1ccc(OCc2nnc(SCC(=O)Nc3ccccc3C(C)C)o2)cc1	107.0	111.0
COCCn1ccc2c(OCC(=O)NCc3ccc(F)cc3)cccc2c1=O	109.0	112.0
Cc1ccc(C)c(NC(=O)c2ccc3c(c2)CCN3S(=O)(=O)c2ccccc2)c1	107.0	112.0
Cc1cc(C)c(Cn2c(=O)n(CCC(=O)NCc3ccc4c(c3)OCO4)c(=O)c3ccccc32)c(C)c1	108.0	112.0
SMILES	Polio RdRp inh	Polio RdRp inh intensity
COc1ccc(NC(=O)c2cc3cc(C)ccc3n2C)cc1	103.0	108.0
Cc1ccc(CNC(=O)c2ccc3c(c2)NC(=O)C(CS(=O)(=O)Cc2cccc(C)c2)N3)cc1 (centres undefined)	180.0	213.0
O=C(CSc1c2c(nc3ccc(Cl)cc13)CCCC2)N1CCCCC1	100.0	104.0
CCc1nn2c(-c3ccco3)ccnc2c1-c1ccc(F)cc1	101.0	103.0
COc1ccccc1CNc1nc2ccc(Cl)cc2n2cnnc12	112.0	107.0
Cc1cccc(NC(=O)COc2ccc3oc4c(c3c2)CCCC4)c1	102.0	103.0
COc1ccc(N(C(=O)c2ccc(Cl)cc2)S(=O)(=O)c2ccc(C)cc2)cc1	106.0	109.0
CCOC(=O)c1c(C)oc2nc(C)nc(NCC3CCN(Cc4cc(C)ccc4C)CC3)c12	103.0	108.0
Cc1c(CC(=O)NCCc2ccccc2)c(=O)oc2c(C)c3occ(C(C)(C)C)c3cc12	109.0	107.0
CCc1ccc(-n2c(=O)c3cccnc3n2CC(=O)Nc2cc(OC)ccc2OC)cc1	114.0	107.0
CCOC(=O)CC(NC(=O)CCc1c(C)nc2c(c(C)nn2-c2ccc(C)c(C)c2)c1C)c1ccc(C)cc1 (centres undefined)	104.0	100.0
COc1ccc(CCNC(=O)C(=O)NCC(c2ccco2)S(=O)(=O)c2ccccc2)cc1OC (centres undefined)	111.0	116.0
Cc1ccc(-n2ncc3c(NC4CCCCC4)ncnc32)cc1C	98.0	107.0
Cc1ccc(C)c(N2CCN(C(=O)Cn3c(=O)c4cccn4c4ccc(F)cc43)CC2)c1	110.0	112.0
CCN(CC)C(=O)c1ccc2ccccc2n1	102.0	107.0
COCCNC(=O)CCc1c(C)n(C)c2cc(-c3cc(OC)c(OC)c(OC)c3)nn2c1=O	104.0	104.0
Cc1ccc(NC(=O)N2CCC(CN3CCCCCC3)CC2)c(Cl)c1	109.0	103.0
Cc1ccc(OCC(=O)NCC2(N(C)C)CCCCC2)cc1C	100.0	104.0
CCS(=O)(=O)N1CCC2(CC1)OC(=O)C(C)=C2C(=O)NCc1ccc(OC)c(OC)c1	104.0	105.0
O=C(CSCc1ccc(F)cc1)N1CCc2c([nH]c3ccccc23)C1c1ccc(F)cc1 (centres undefined)	107.0	113.0
CCOC(=O)c1[nH]c(C)c(CCC(=O)Nc2cccc(SC)c2)c1C	101.0	104.0
CCC(C)(C)NC(=O)Cn1c(=O)ccc2cc(S(=O)(=O)N3CCC(C)CC3)ccc21	103.0	105.0
COc1ccc(-c2c3c(=O)n(C)c(=O)n(C)c3c3c(-c4ccccc4)nc4ccccc4n23)cc1	109.0	111.0
Cc1ccc(N2CCN(S(=O)(=O)c3ccc4[nH]c5c(c4c3)CCCCC5)CC2)c(C)c1	103.0	100.0
COc1ccc(CCNCc2ccc3c(c2)n(C)c(=O)n3C)cc1OC	102.0	95.0
SMILES	Polio RdRp inh	Polio RdRp inh intensity
CCOc1ccc(NC(=O)CSc2ncc3c(n2)-c2ccc(Cl)cc2N(Cc2ccccc2)S3(=O)=O)cc1	108.0	111.0
CCNC(=O)c1ccc2nc(Cc3ccccc3)oc2c1	102.0	106.0
CCCC(=O)Nc1cc(C(=O)NCc2ccccc2)ccc1S(=O)(=O)c1ccc(Cl)cc1	104.0	105.0
Cn1cc(S(=O)(=O)N2CCCCCC2)cc1C(=O)N1CCN(c2cccc(Cl)c2)CC1	102.0	106.0
Cc1ccc2nc(N(Cc3cccnc3)C(=O)CCc3ccccc3)sc2c1	111.0	114.0
Cc1cc(C)n2c(Nc3ccc4c(c3)OCCO4)c(-c3ccccc3)nc2n1	108.0	103.0
O=C(Nc1cccc(F)c1)c1oc2ccccc2c1NC(=O)C12CC3CC(CC(C3)C1)C2	100.0	101.0
Cc1ccc(NC(=O)C2CCN(S(=O)(=O)c3cccc4nsnc34)CC2)cc1	103.0	107.0
CC(=O)Nc1ccc(-n2c(CCC(=O)O)ccc2-c2ccc(C)cc2)cc1	104.0	107.0
CCn1ccc2cc(S(=O)(=O)N3CCC(C(=O)NCc4ccc(F)cc4)CC3)ccc21	110.0	111.0
CCOC(=O)C1CCN(S(=O)(=O)c2cc(-c3cc(C)no3)ccc2OC)CC1	111.0	108.0
Cc1ccc(C(=O)Nc2ccc(C(=O)O)cc2)cc1S(=O)(=O)N1CCC(C)CC1	103.0	105.0
O=S(=O)(NCc1csc(-c2ccccc2)n1)c1ccccc1	106.0	111.0
Cc1ccc(C(=O)Nc2ccc(Br)cc2)cc1S(=O)(=O)NCc1ccccc1	98.0	96.0
O=C(NCCc1ccccc1)c1ccc(Cn2c(SCc3cccc(F)c3)nc3cccnc32)cc1	104.0	106.0
CCOC(=O)c1c(S(=O)(=O)N2CCCC(C(=O)Nc3cccc(C#N)c3)C2)c(C)n(C)c1C (centres undefined)	97.0	103.0

18 entries from above, with two lines to a compound:
Every second line gives: Polio RdRp inh, Polio RdRp inh intensity
COc1ccc(-c2c3c(=O)n(C)c(=O)n(C)c3c3c(-c4ccccc4)nc4ccccc4n23)cc1
  109.0, 111.0
Cc1ccc(N2CCN(S(=O)(=O)c3ccc4[nH]c5c(c4c3)CCCCC5)CC2)c(C)c1
  103.0, 100.0
COc1ccc(CCNCc2ccc3c(c2)n(C)c(=O)n3C)cc1OC
  102.0, 95.0
CCOc1ccc(NC(=O)CSc2ncc3c(n2)-c2ccc(Cl)cc2N(Cc2ccccc2)S3(=O)=O)cc1
  108.0, 111.0
CCNC(=O)c1ccc2nc(Cc3ccccc3)oc2c1
  102.0, 106.0
CCCC(=O)Nc1cc(C(=O)NCc2ccccc2)ccc1S(=O)(=O)c1ccc(Cl)cc1
  104.0, 105.0
Cn1cc(S(=O)(=O)N2CCCCCC2)cc1C(=O)N1CCN(c2cccc(Cl)c2)CC1
  102.0, 106.0
Cc1ccc2nc(N(Cc3cccnc3)C(=O)CCc3ccccc3)sc2c1
  111.0, 114.0
Cc1cc(C)n2c(Nc3ccc4c(c3)OCCO4)c(-c3ccccc3)nc2n1
  108.0, 103.0
O=C(Nc1cccc(F)c1)c1oc2ccccc2c1NC(=O)C12CC3CC(CC(C3)C1)C2
  100.0, 101.0
Cc1ccc(NC(=O)C2CCN(S(=O)(=O)c3cccc4nsnc34)CC2)cc1
  103.0, 107.0
CC(=O)Nc1ccc(-n2c(CCC(=O)O)ccc2-c2ccc(C)cc2)cc1
  104.0, 107.0
CCn1ccc2cc(S(=O)(=O)N3CCC(C(=O)NCc4ccc(F)cc4)CC3)ccc21
  110.0, 111.0
CCOC(=O)C1CCN(S(=O)(=O)c2cc(-c3cc(C)no3)ccc2OC)CC1
  111.0, 108.0
Cc1ccc(C(=O)Nc2ccc(C(=O)O)cc2)cc1S(=O)(=O)N1CCC(C)CC1
  103.0, 105.0
O=S(=O)(NCc1csc(-c2ccccc2)n1)c1ccccc1
  106.0, 111.0
Cc1ccc(C(=O)Nc2ccc(Br)cc2)cc1S(=O)(=O)NCc1ccccc1
  98.0, 96.0
O=C(NCCc1ccccc1)c1ccc(Cn2c(SCc3cccc(F)c3)nc3cccnc32)cc1
  104.0, 106.0

This is a subset; the hit share may differ from the screen's.
